Bioassay records (PubChem)
WNV NS2B-NS3 inh = inhibitors of West Nile virus NS2B-NS3 protease. P06935. 65,000 compounds, 0.18% hits. z-score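 (tested at a level between 10 and 100 µM)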. WNV NS2B-NS3 protease, fluorogenic substrate Ex360/Em465; hits give low values;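 active = z-score at -3 or under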;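 note: score is relative to mean and spread of the compound wells of a plate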
Target sequence (P06935 1371-1501 limits assumed): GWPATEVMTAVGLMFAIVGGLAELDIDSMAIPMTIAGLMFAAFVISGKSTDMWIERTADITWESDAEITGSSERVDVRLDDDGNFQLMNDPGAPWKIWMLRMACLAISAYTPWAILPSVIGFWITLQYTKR
Target sequence (P06935 1502-1679 limits assumed): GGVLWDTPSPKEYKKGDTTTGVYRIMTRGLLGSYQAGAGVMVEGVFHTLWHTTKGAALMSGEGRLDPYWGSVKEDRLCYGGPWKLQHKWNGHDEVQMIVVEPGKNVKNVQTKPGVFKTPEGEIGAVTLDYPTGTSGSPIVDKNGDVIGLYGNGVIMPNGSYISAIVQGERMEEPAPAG
Hsc70 = Hsc70 inhibitors, probe displacement, primary screen, biochemical, fluorescence polarization (AID 568); Hsc70 fluorescence polarization, probe displacement; higher % means a stronger effect; strong numbers were not always called active; displacement, % at 20 µM; hits with a dose series show IC50 in µM; 83,000 tested, under 10 active;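 active = displacement above 50% without optical interference and an IC50 on retest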;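 note: ATPase domain with a fluorescein-tagged ATP probe; 0% = vehicle and 100% = excess ADP; read after one hour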
MT1-MMP promoter = MT1-MMP gene expression reporter suppression – cell-based, luciferase reporter, luminescence (AID 618). MT1-MMP promoter luciferase reporter cells, luminescence. calls from a first round at 10 µM; hits with a dose series show EC50 in µM. 87,000 compounds, 0.62% hits;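 active = over half of the reporter light lost at 10 µM or EC50 under 50 µM; inactive = the rest and hits that failed the dose series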;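 note: actives suppress MT1-MMP promoter-driven transcription so potencies describe inhibitors; HT1080 fibrosarcoma cells; overnight exposure; toxic or luciferase-blocking compounds were not removed from the actives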
An asterisk follows results filed as active; i = inactive; . = no result given.

Below each compound – WNV NS2B-NS3 inh | Hsc70 | MT1-MMP promoter
O=c1c2ccccc2nc(COc2ccccc2)n1/N=C/c1ccco1
  -0.61 | -6.4% | i
O=C(CN1CCN(c2ccccn2)CC1)NC(=O)NC1CCCCC1
  0.44 | -2.9% | i
CC(=O)C1=C(C)NC(SCC(=O)c2ccccc2)=C(C#N)C1CC(C)C (stereo unspecified)
  -0.95 | -0.2% | i
CCCCOC(=O)Nc1ccc(C)c(Cl)c1
  . | 1.7% | i
Cc1ccc(NC(=O)CC2SC(=O)N(c3ccccc3)C2=O)cc1 (stereo unspecified)
  . | -0.2% | i
Cc1cn2nc(N)c3ccccc3c2n1
  -0.56 | -2.7% | i
CCC(CC)C(=O)Nc1c(C)n(C)n(-c2ccccc2)c1=O
  . | -3.2% | i
COc1ccccc1C(=O)Nc1ccc(-c2nnc(SCC(=O)O)n2C)cc1
  1.1 | 1.0% | i
Cc1ccc(NC(=O)COC(=O)C2CCC(=O)N2)c(S(=O)(=O)N2CCOCC2)c1 (stereo unspecified)
  -0.44 | -2.1% | i
COc1ccc(C(=O)CSc2nnc(-c3ccc(S(=O)(=O)N4CCOCC4)cc3)o2)cc1
  1.4 | -2.1% | i
CCC(C(=O)O/N=C(\N)c1ccc(Cl)cc1)c1ccccc1 (stereo unspecified)
  . | 2.2% | i
Cc1ccc2cc3c(NC(=O)CC(C)C)nn(C)c3nc2c1
  -0.13 | -4.0% | i
CCc1nc(SCC(=O)Nc2c(C)nn(C)c2C)c2cnn(-c3ccccc3)c2n1
  . | 0.8% | i
CC(C)Oc1ccc(C(=O)Nc2cc(=O)n(C)c(=O)n2C)cc1
  -0.53 | -4.3% | i
Cc1ccc(NC(=O)C2CC=CCC2C(=O)N2CCCCC2)cc1 (stereo unspecified)
  0.54 | -3.1% | i
CCC(=O)N=c1sc2c(C)cc(C)cc2n1CC(=O)OC
  1.2 | 6.4% | i
O=C(C1CCCCC1)N1CCC(c2nc3c(nnn3Cc3ccccc3Cl)c(=O)[nH]2)CC1
  0.07 | -1.0% | i
CCOc1ccccc1NC(=O)c1c(NC(=O)CNCc2ccco2)sc2c1CCC2
  -0.32 | -4.8% | i
Cc1cc(C)n(-c2nc3c(c(=O)[nH]c(=O)n3C)n2CC(O)COc2ccc(Cl)cc2Cl)n1 (stereo unspecified)
  . | 3.0% | i
Cc1cccc(-n2ncc3c(NCc4cccs4)ncnc32)c1
  -0.38 | -0.5% | i
Cn1nnnc1P(=O)(c1ccccc1)c1ccccc1
  0.23 | 2.6% | i
Nc1c(S(=O)(=O)c2cccc(Cl)c2)c2nc3ccccc3nc2n1/N=C/c1ccc(O)c(O)c1
  -0.63 | -5.2% | i
COc1ccc(S(=O)(=O)Nc2ccc3c(c2)OCO3)cc1C
  . | 0.9% | i
COc1ccc(-c2n[nH]c(C)c2-c2ccc(OC)c(OC)c2)c(O)c1
  -0.86 | 1.2% | i
COC(=O)Cn1ncn2c(cc3oc(C)cc32)c1=O
  1.4 | 1.9% | i
Cc1cc(C)n2cc(CSCc3ccco3)nc2n1
  0.43 | 5.1% | i
COc1cccc(N2CCN(Cc3nc(N)nc(Nc4ccccc4)n3)CC2)c1
  1.2 | 2.1% | i
CCOc1ccc(OCc2ccc(C(=O)N3CCCC3)o2)cc1
  0.98 | 0.1% | i
O=C(NCCO)c1ccc2nc(-c3ccco3)c(-c3ccco3)nc2c1
  . | -6.1% | i
CCNc1nc(NC(C)C)nc(OCCOC(=O)Nc2ccccc2)n1
  . | 0.1% | i
CCC(=O)Nc1ccc2nc(SCC(=O)N3CCCC3)sc2c1
  0.94 | 0.9% | i
COc1cc(C(=O)Oc2cccc(C)c2)cc(OC)c1OC
  . | -2.1% | i
CC(C)N(Cc1nc(-c2ccccc2)no1)C(=O)CN1C(=O)c2ccccc2C1=O
  -0.65 | 7.0% | i
CCOC(=O)Cn1nnc(-c2cccc(OC)c2)n1
  1.5 | -2.5% | i
O=C(COc1ccc(S(=O)(=O)NC2CCCCC2)cc1)N1CCN(c2ccc(F)cc2)CC1
  0.18 | -0.1% | i
Cc1cccc(C)c1NC(=O)C(c1ccccc1)N1CCN(C(=O)c2ccco2)CC1 (stereo unspecified)
  -0.16 | 4.1% | i
Cc1ccc(Cn2nnc3c(=O)n(CC(=O)OCc4ccccc4)cnc32)cc1
  0.79 | -0.3% | i
CC(C)NC(=O)CN1C(=O)C(=O)c2ccccc21
  . | 2.6% | i
N#CC1=C(N)Oc2c(ccc3cccnc23)C1c1cccnc1 (stereo unspecified)
  0.21 | 6.6% | i
COCc1cc(=O)[nH]c(/N=C(\N)Nc2ccccc2C)n1
  . | -2.1% | i

Structural class, those above with a halogen
Below each compound – WNV NS2B-NS3 inh | Hsc70 | MT1-MMP promoter
CCCCOC(=O)Nc1ccc(C)c(Cl)c1
  . | 1.7% | i
CCC(C(=O)O/N=C(\N)c1ccc(Cl)cc1)c1ccccc1 (stereo unspecified)
  . | 2.2% | i
O=C(C1CCCCC1)N1CCC(c2nc3c(nnn3Cc3ccccc3Cl)c(=O)[nH]2)CC1
  0.07 | -1.0% | i
Cc1cc(C)n(-c2nc3c(c(=O)[nH]c(=O)n3C)n2CC(O)COc2ccc(Cl)cc2Cl)n1 (stereo unspecified)
  . | 3.0% | i
Nc1c(S(=O)(=O)c2cccc(Cl)c2)c2nc3ccccc3nc2n1/N=C/c1ccc(O)c(O)c1
  -0.63 | -5.2% | i
O=C(COc1ccc(S(=O)(=O)NC2CCCCC2)cc1)N1CCN(c2ccc(F)cc2)CC1
  0.18 | -0.1% | i

Other records:
Below each compound – WNV NS2B-NS3 inh | Hsc70 | MT1-MMP promoter
COc1cc(NS(=O)(=O)c2ccc(F)cc2)c(OC)cc1NC(C)=O
  -1.2 | -5.7% | i
O=C(c1cccs1)N1CCN(C(=O)c2ccco2)c2ccccc2C1
  -4.8* | 6.6% | i
CCOC(OCC)P(=O)(c1ccccc1)c1ccccc1
  0.22 | -1.7% | i
CCCCCCS(=O)Cc1ccccc1 (stereo unspecified)
  -0.54 | 7.7% | i
Cc1ccc2nc(NC(=O)COC(=O)c3ccc(Br)o3)sc2c1
  . | -1.1% | i
CC(=O)Oc1cccc(N2C(=O)C3C4C=CC(C4)C3C2=O)c1 (stereo unspecified)
  1.2 | 4.6% | i
COc1ccccc1CN(C(=O)c1ccco1)C(C(=O)NC1CCCC1)c1ccncc1 (stereo unspecified)
  -1 | 3.1% | i
NS(=O)(=O)c1ccc(C(=O)O)cc1
  0.6 | -2.8% | i
COc1cc(C(=O)N2CCC(c3nc(-c4cccnc4)no3)CC2)cc(OC)c1OC
  -0.28 | -0.6% | i
CCn1ncc(Br)c1C(=O)Nc1cc(C)ccc1F
  -0.16 | -10% | i
Cc1nc2ccc(S(=O)(=O)NCC(=O)NCc3ccc4c(c3)OCO4)cc2s1
  0.2 | 6.8% | i
O=C(CSc1n[nH]c(-c2ccccc2)n1)c1ccc(O)c(O)c1
  0.15 | -8.3% | i
COc1cc(SC)ccc1C(=O)OC1CCOC1=O (stereo unspecified)
  -1.4 | -1.4% | i
O=C(COC(=O)C1CCCCC1)Nc1ccc(N2CCCCC2)cc1
  -0.37 | 10% | i
Cc1ccc(-c2c3c(=O)n(C)c(=O)n(C)c3cn2Cc2ccccc2)cc1
  . | 3.5% | i
Cc1ccc(C(=O)N(c2ccccn2)C(C)c2ccco2)cc1 (stereo unspecified)
  -0.58 | -1.9% | i
CC(C)N1CC23C=CC(O2)C(C(=O)OCc2ccccc2)C3C1=O (stereo unspecified)
  -1 | 2.6% | i
c1ccc(-c2nc(N3CCNCC3)nc3ccccc23)cc1
  . | -1.3% | i
Cc1cc(NS(=O)(=O)c2ccc(NC(=O)NC3CCCCC3)cc2)no1
  -1.1 | 4.0% | i
O=C(Nc1ccc(F)cc1)C1CCCCC1
  1.4 | 3.7% | i
COc1ccccc1NC(=O)c1ccc(N)cc1
  -1.4 | -2.1% | i
CSc1nnc2c(n1)OC=Nc1ccccc1-2
  -0.65 | -2.6% | i
CCO/C=N/c1c(C#N)c2c(c(=S)n1C)COC(C)(C)C2
  -0.52 | -1.2% | i
Cn1c(=O)c2c(nc(CN3CCN(C(c4ccccc4)c4ccccc4)CC3)n2CC(N)=O)n(C)c1=O
  . | 2.6% | i
COc1ccccc1NC(=O)N1CCCC1C(=O)NCc1ccc2c(c1)OCO2 (stereo unspecified)
  . | 0.2% | i
NC(=O)c1ccsc1NC(=O)COc1ccccc1
  -0.12 | 9.1% | i
Cc1nc(NC2=NCN(Cc3cccnc3)CN2)nc2c(C)cccc12
  0.96 | -3.8% | i
CC(=O)N1C2CCCCC2S[C@H]2CCCCC21 (stereo partly specified)
  -1.1 | -2.2% | i
N#Cc1c(NC(=O)CSc2nnc(-c3ccncc3)n2CC2CCCO2)sc2c1CCCC2 (stereo unspecified)
  -1.4 | -0.3% | i
CCc1nc(NCCN2CCOCC2)c2oc3ccccc3c2n1
  -0.51 | -3.5% | i
Cc1cccc(NC(=O)Cn2c(C)c(C#N)c3ccccc32)c1C
  0.55 | -19% | i
O=C(NCc1cccs1)C1CCCN1C(=O)Nc1ccccc1 (stereo unspecified)
  0.33 | -3.6% | i
O=C(Cn1cnc2c(nnn2Cc2ccccc2)c1=O)N1CCCc2ccccc21
  0.52 | 2.0% | i
CCN1c2ccccc2-c2nc3ccccc3n2C1c1ccccn1 (stereo unspecified)
  0.5 | -6.2% | i
Cc1ccccc1C(=O)NC1CCN(C(=O)N(c2ccccc2)c2ccccc2)CC1
  . | 4.1% | i
COc1ccccc1OCC(=O)OCC(=O)Nc1ncc(Cl)cc1Cl
  -1.1 | -4.4% | i
Cc1[nH]nc2c1C1(CCC3(CC1)OCCO3)C(C#N)=C(N)O2
  -0.08 | -3.3% | i
CCn1c(CN2CCCCCC2=O)nnc1SCc1cnc(-c2ccccc2)s1
  1.7 | -5.7% | i
CCCCOC(=O)CNc1nnc(SCC(=O)OCC)[nH]c1=O
  0.14 | -3.7% | i
C1CCN(c2c3c(nc4nnnn24)CCCC3)CC1
  . | -1.1% | i
O=C(c1cc2c(ccc3ccccc32)oc1=O)N1CCN(CCO)CC1
  0.53 | -2.0% | i
CCOCCn1c(-c2ccc(OC)cc2)nc2ccccc21
  0.83 | 1.2% | i
O=C(CSc1cccc2cccnc12)NCc1ccco1
  0.34 | -4.0% | i
COC(=O)c1cc(COc2ccc3c(c2)oc(=O)c2ccccc23)c(C)o1
  . | 6.6% | i
CCCCCn1c(=O)[nH]c2c(c1=O)CCC2
  . | -9.4% | i
CC(C)(C)C(=O)NC1CCN(C(=O)N2CCCC2)CC1
  -0.11 | -4.0% | i
COc1ccc(C2C(C(=O)c3sc(C)nc3C)=C(O)C(=O)N2CCCn2ccnc2)cc1OC (stereo unspecified)
  . | 3.5% | i
Cc1cc(C(=O)OCC(=O)NC2CCCCC2)c(C)o1
  . | -4.2% | i
Cc1cccc(OCCCN2CCCCCC2)c1
  0.77 | -9.7% | i
COCc1cc(C)nc(N)c1C#N
  1.4 | 5.2% | i
COCCCNC(=O)CN(c1cc(OC)ccc1OC)S(=O)(=O)c1ccccc1
  0.17 | -0.7% | i
Cc1ccc2nc(-c3cccc(NC(=O)c4ccco4)c3)[nH]c2c1
  -1.6 | -16% | i
CCOC(=O)C1C2C=CC3(CN(CCc4ccccc4)C(=O)C13)O2 (stereo unspecified)
  -1.1 | 1.3% | i
CC(=O)OCC[N+](C)(C)C
  0.74 | -2.8% | i
O=C1c2ccccc2C(=O)N1CCCSc1nc2ccccc2o1
  1.8 | 6.1% | i
N=c1n(CCN2CCOCC2)c2ccccc2n1Cc1ccccc1Br
  1.2 | -1.0% | i
CC(=O)c1cc2c(cc1N)OCO2
  1 | -3.8% | i
O=C(CN1C(=O)NC2(CCCCC2)C1=O)Nc1ccccc1Cl
  0.64 | -1.6% | i
Cc1cc(N2C3CCC2CC(O)(c2ccc(F)cc2)C3)nc(-c2ccccc2)n1 (stereo unspecified)
  0.25 | -7.3% | i
CCC(N1CCOC1=O)S(=O)(=O)c1ccc(C)cc1 (stereo unspecified)
  . | 3.4% | i

Additional entries follow:
Below each compound – WNV NS2B-NS3 inh | Hsc70 | MT1-MMP promoter
O=C(Nc1nc2c(c(=O)[nH]1)CCCC2)C1CC1
  . | 2.6% | i
COc1ccc(Oc2ncc(CN3CCN(c4ccccc4)CC3)s2)cc1
  . | 0.4% | i
COc1cccc2c(=O)n(CC(=O)NC3CCCC3)ccc12
  0.16 | 4.1% | i
CN1CCN(C(=O)c2ccc3c(c2)N(Cc2cccc(Cl)c2)C(=O)c2ccccc2S3=O)CC1 (stereo unspecified)
  -0.44 | 1.9% | i
O=C(NCC1CCCO1)c1cc(-c2ccco2)nc2ccccc12 (stereo unspecified)
  1.7 | 0.9% | i
COc1cc(C2C(C(=O)c3ccco3)=C(O)C(=O)N2CCc2ccccc2)ccc1O (stereo unspecified)
  -0.96 | -3.5% | i
CC(C)(C)NC(=O)CN1CCC(O)(c2ccc3c(c2)OCO3)CC1
  . | 7.1% | i
O=C(Nc1nc2c(s1)CN(Cc1ccccc1)CC2)c1cccc(S(=O)(=O)N2CCc3ccccc32)c1
  . | 14% | i
CS(=O)(=O)N(CC(=O)N1CCN(c2cccc(Cl)c2)CC1)c1cccc(F)c1
  -0.64 | -5.8% | i
O=P(OC1CCCCC1)(OC1CCCCC1)C(O)c1ccc(Cl)cc1Cl (stereo unspecified)
  . | 1.2% | i
COC(=O)c1ccccc1N(C)S(C)(=O)=O
  0.66 | 4.6% | i

These rows are one share of the data; count on the stated rates, not on these rows.
